# Ecoli rRNA inh: inhibitors of bacterial rRNA selective over humanized ribosomes | E. coli WT GFP vs humanized-ribosome RFP mutants, fluorescence, 24 h; hits give low values; DMSO median 0, no signal -100 | hit rate 1.6% among 350,000 | GFP signal change (wild-type ribosome), % (no concentration beside the values) | AID 720706;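 active = significant combined selectivity score with lowered wild-type GFP, culture density cut under 30%, mutant RFP and density less affected; inactive = any of these conditions unmet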; also: one replicate is shown; some compounds called inactive have numbers as strong as hits
# AF4-AF9 inh: inhibitors of human MLL-AF4/AF9 interaction | P42568 | AlphaScreen, biotin-AF4 peptide binding to FLAG-AF9 | inhibition, % at 10 µM | hit rate 0.47% among 350,000 | AID 651704;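 active = every replicate reaching a set inhibition limit, whatever the replicate mean, cut at about 25% in these data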;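 also: 0% = plate neutral control median and 100% = total signal loss; the record names both 10 and 1 µM as test concentration; the first replicate is given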
# Target sequence (P42568 whole entry, looked up): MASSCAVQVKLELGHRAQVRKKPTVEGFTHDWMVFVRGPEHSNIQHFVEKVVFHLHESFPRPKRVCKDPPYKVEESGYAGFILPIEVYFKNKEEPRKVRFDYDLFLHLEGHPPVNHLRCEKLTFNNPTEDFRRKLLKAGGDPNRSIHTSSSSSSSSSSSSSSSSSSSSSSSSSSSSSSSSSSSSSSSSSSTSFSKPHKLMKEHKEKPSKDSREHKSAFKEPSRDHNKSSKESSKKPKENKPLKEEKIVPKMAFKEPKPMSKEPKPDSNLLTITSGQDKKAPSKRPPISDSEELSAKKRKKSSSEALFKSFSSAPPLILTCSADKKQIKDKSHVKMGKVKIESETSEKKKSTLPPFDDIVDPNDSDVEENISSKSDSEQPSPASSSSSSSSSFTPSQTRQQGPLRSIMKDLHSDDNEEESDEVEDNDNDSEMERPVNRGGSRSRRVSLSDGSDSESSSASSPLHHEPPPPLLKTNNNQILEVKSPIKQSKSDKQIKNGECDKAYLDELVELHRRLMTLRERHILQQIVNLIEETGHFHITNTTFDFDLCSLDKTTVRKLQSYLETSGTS
# Ecoli rRNA inh OD600: second read-out of Ecoli rRNA inh, no call of its own (marks repeat the call); OD600 change, %; measured here: OD600 growth;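 optical density of the mix in the first replicate; 0 = DMSO median and -100 = no signal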
# Ecoli rRNA inh RFP: also measured in Ecoli rRNA inh; calls as there; RFP signal change, %; measured here: RFP humanized mutant strains;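 first replicate; 0 = DMSO median and -100 = no signal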
# The depositor's hits bear a star. Some of the compounds tested; count on the stated rates, not on these rows.
SMILES,Ecoli rRNA inh,Ecoli rRNA inh OD600,Ecoli rRNA inh RFP,AF4-AF9 inh
O=C(CNC(=O)c1cc(=O)[nH]c2ccc(S(=O)(=O)N3CCOCC3)cc12)Nc1ccc(F)c(F)c1,10,18,-1.0,3.2
CC(C)NC(=O)Nc1ccc2c(c1)C(=O)N([C@@H](C)CO)C[C@@H](C)[C@H](CN(C)C(=O)Cc1ccccc1)OCCCC[C@H](C)O2,-1,5,-2.5,-2.9
C[C@@H]1CN([C@H](C)CO)C(=O)c2cc(NC(=O)CCN3CCOCC3)ccc2O[C@@H]1CN(C)C(=O)Nc1ccccc1,3,-3,-4.4,-0.8
O=C1Nc2ccccc2CN2C(=O)c3cc(Cl)ccc3NC(=O)C12 (configuration not stated),15,9,5.5,-1.1
C[C@H](CO)N1C[C@H](C)[C@@H](CN(C)Cc2ccc(Cl)c(Cl)c2)Oc2ccc(NC(=O)CCCN(C)C)cc2CC1=O,-60,-81,-19,18
CC(=O)c1cccc(-c2ccnc3c2CC(C(=O)NCC2CC2)O3)c1 (configuration not stated),-4,-3,-1.8,-0.9
CC(C)C#Cc1ccc2c(c1)O[C@H](CN(C)C(=O)CN(C)C)[C@@H](C)CN([C@H](C)CO)S2(=O)=O,-1,2,0.0,3.4
CC(=O)NC[C@@H]1[C@@H](c2ccc(-c3ccccc3)cc2)[C@@H](CO)N1C(=O)C1CCC1,-4,-7,-1.2,1.7
C[C@@H]1CN([C@@H](C)CO)C(=O)c2cc(-c3cncnc3)cnc2O[C@H]1CN(C)C(=O)Cc1ccccn1,9,14,-2.9,-0.3
COc1ccccc1-c1cnc2c(c1)C(=O)N([C@@H](C)CO)C[C@@H](C)[C@@H](CN(C)Cc1cccc(F)c1)O2,-2,3,-0.4,1.8
CCC(=O)Nc1ccc2c(c1)C(=O)N(C)[C@H]1CC[C@@H](CC(=O)NCCOC)O[C@@H]1CO2,3,7,0.1,-2.1
CN1CCN(C(=O)[C@H]2[C@H](CO)[C@H]3Cn4c(ccc(-c5ccncc5)c4=O)[C@H]3N2CC2CC2)CC1,2,9,1.0,-6.6
CCCCN1C(=O)C(CC(=O)NCc2cccs2)CC(C(=O)N2CCCCCC2)=C1C (configuration not stated),4,7,1.5,-2.1
COCCNc1nc(Nc2ccccc2Cl)c2sc(-c3ccccc3)cc2n1,-1,28,-2.0,-0.2
CN1CCN(C(=O)C[C@H]2CC[C@H](NS(=O)(=O)c3cccc(F)c3)[C@@H](CO)O2)CC1,3,2,-3.9,-1.6
CCCC#Cc1cnc2c(c1)C(=O)N([C@H](C)CO)C[C@@H](C)[C@H](CN(C)C(=O)C1CCOCC1)O2,2,-9,-0.1,-1.8
COc1ccc(CN(C)C[C@@H]2Oc3ccc(NC(=O)CCN4CCOCC4)cc3C(=O)N([C@H](C)CO)C[C@H]2C)cc1,2,8,-3.9,-3.8
C[C@@H]1CN([C@H](C)CO)C(=O)c2cc(NC(=O)CCCN(C)C)ccc2O[C@@H]1CN(C)C(=O)Nc1cccc2ccccc12,-4,0,0.8,-0.9
COc1ccc(-c2ccc3c(c2)[C@@H]2[C@@H](CCN2S(=O)(=O)c2ccc(OC)cc2)[C@@H](CO)N3C)cc1,3,12,-0.8,-1.2
CCCNC(=O)C1(C)CCCN(C(=O)c2cccc(OC(C)=O)c2C)C1 (configuration not stated),16,20,-0.9,-3.1
COC(=O)C[C@@H]1CC[C@H]2[C@@H](COC[C@H](O)CN2S(=O)(=O)c2ccccc2C)O1,-1,2,0.3,-1.4
O=C(C1CCOCC1)N1CC(=O)N2[C@H](CO)[C@@H](c3ccc(C#Cc4cccc(F)c4)cc3)[C@H]2C1,0,7,3.1,1.0
CCNC(=O)C1(C)CCN(C(=O)c2ccc(F)cc2Cl)C1 (configuration not stated),12,21,3.6,-1.1
C[C@@H]1CN([C@H](C)CO)C(=O)c2cccc(N(C)C)c2O[C@@H]1CN(C)C(=O)Nc1ccc(C(F)(F)F)cc1,-6,-15,-3.9,6.0
COc1ccccc1-c1ccc([C@@H]2[C@H]3CN(C(=O)c4cccnc4)CCCCN3[C@H]2CO)cc1,-3,-8,-1.4,2.3
CN(C)C(=O)c1ccc(-c2ccc(C3[C@@H]4CN(C(=O)Cc5ccncc5)C[C@H]3N4)cc2)cc1 (some centres not stated),2,5,5.0,-0.9
COc1cccc(-c2ccc([C@@H]3[C@@H](C#N)N(C(=O)Cc4ccccc4)[C@@H]3CO)cc2)c1,-11,-34,22,-1.5
C[C@@H]1CCCCO[C@H](CN(C)C(=O)NC2CCCCC2)[C@@H](C)CN([C@@H](C)CO)C(=O)c2cc(NC(=O)Cc3ccccc3)ccc2O1,1,3,7.0,3.4
COc1ccccc1S(=O)(=O)N(C)C[C@H]1Oc2cc(/C=C/c3ccccc3)ccc2S(=O)(=O)N([C@@H](C)CO)C[C@@H]1C,2,-2,-1.0,1.3
C[C@@H]1CN([C@H](C)CO)C(=O)c2cc(NC(=O)CCCN(C)C)ccc2O[C@@H]1CN(C)C(=O)Nc1ccccc1,0,1,-3.4,-0.9
C[C@@H]1CCCCO[C@@H](CN(C)S(=O)(=O)c2ccc(Cl)cc2)[C@H](C)CN([C@H](C)CO)C(=O)c2cc(NC(=O)Nc3ccc(F)cc3)ccc2O1,-6,0,-5.2,-1.9
Cc1ccc(S(=O)(=O)N(C)C[C@H]2Oc3ncc(Br)cc3C(=O)N([C@H](C)CO)C[C@H]2C)cc1,-2,9,6.9,-2.1
COc1ccc2c3c([nH]c2c1)[C@@H](CO)N(Cc1cccc(F)c1)CC31CCN(Cc2ccccn2)CC1,0,-10,4.2,7.2
COc1ccc(S(=O)(=O)N[C@H]2CC[C@H](CCn3cc(C(C)C)nn3)O[C@@H]2CO)cc1,4,10,1.4,-1.6
CO[C@@H]1CN(C)C(=O)c2ccc(NC(=O)C3CC3)cc2OC[C@H](C)N(C(=O)c2ccccc2F)C[C@@H]1C,-2,-3,-0.3,-2.6
Cc1noc(C)c1NC(=O)N(C)C[C@@H]1OCCCC[C@H](C)Oc2ccc(NC(=O)Cc3ccccc3)cc2C(=O)N([C@H](C)CO)C[C@@H]1C,0,-2,-0.3,-3.6
C[C@H]1CN([C@@H](C)CO)C(=O)c2cccc(NS(=O)(=O)c3cn(C)cn3)c2O[C@H]1CN(C)Cc1ccc(Cl)c(Cl)c1,-1,-1,0.1,3.3
CO[C@H]1CN(C)C(=O)c2cc(NC(=O)Nc3ccc(Cl)cc3)ccc2OC[C@@H](C)NC[C@@H]1C,-7,-12,-0.3,-4.0
C[C@@H]1CN([C@H](C)CO)C(=O)Cc2cc(NC(=O)C3CCCCC3)ccc2O[C@@H]1CN(C)C(=O)Nc1ccc2c(c1)OCO2,-1,5,4.0,-0.3
COc1ccc(S(=O)(=O)Nc2ccc3c(c2)CC(=O)N([C@@H](C)CO)C[C@@H](C)[C@@H](CN(C)S(=O)(=O)c2cccs2)O3)cc1,-3,-12,1.5,-0.5

# Pulled by structure from the entries so far (two):
SMILES,Ecoli rRNA inh,Ecoli rRNA inh OD600,Ecoli rRNA inh RFP,AF4-AF9 inh
CO[C@H]1CN(C)C(=O)c2cc(NC(=O)Nc3ccc(Cl)cc3)ccc2OC[C@@H](C)NC[C@@H]1C,-7,-12,-0.3,-4.0
Cc1noc(C)c1NC(=O)N(C)C[C@@H]1OCCCC[C@H](C)Oc2ccc(NC(=O)Cc3ccccc3)cc2C(=O)N([C@H](C)CO)C[C@@H]1C,0,-2,-0.3,-3.6

# (list continues)
SMILES,Ecoli rRNA inh,Ecoli rRNA inh OD600,Ecoli rRNA inh RFP,AF4-AF9 inh
O=C(O)C[C@H]1CC[C@H](NC(=O)c2ccncc2)[C@@H](CO)O1,3,-2,-0.8,-0.6
CC1=C(C(=O)N(C(C)C)C(C)C)CC(CC(=O)NCc2ccco2)C(=O)N1Cc1ccc(C(C)(C)C)cc1 (configuration not stated),6,-1,1.0,3.0
COC(=O)C[C@H]1C=C[C@H](NC(=O)Nc2ccccc2F)[C@@H](CO)O1,3,0,0.1,-3.9
O=C(c1cc2ccccc2o1)N1CCN(Cc2nc3ccccc3s2)CC1,-13,-24,-0.7,-0.3
CN1C(=O)c2cc(NC(=O)Nc3cccc(Cl)c3)ccc2OC[C@H]2O[C@@H](CC(=O)NCCc3ccncc3)CC[C@H]21,-24,-28,9.7,1.2
C[C@H](CO)N1C[C@H](C)[C@H](CN(C)S(=O)(=O)c2ccc(Cl)cc2)Oc2ccc(NC(=O)CCN3CCOCC3)cc2CC1=O,0,8,2.1,2.2
O=C(C[C@H]1C[C@H]2c3cc(NC(=O)Nc4ccccc4)ccc3O[C@H]2[C@@H](CO)O1)NCC1CC1,0,0,1.0,-3.5
C[C@H](O)C#Cc1ccc2c(c1)O[C@H](CN(C)C(=O)C1CCC1)[C@H](C)CN([C@@H](C)CO)S2(=O)=O,0,8,-2.7,-11
COc1ccc2c3c(n(C)c2c1)[C@H](CO)N(C(=O)Nc1ccc(F)cc1)CC31CCN(Cc2ccccc2F)CC1,-12,-39,23,8.0
CO[C@@H](CN(C)Cc1cc(F)ccc1F)[C@H](C)CN([C@@H](C)CO)S(=O)(=O)c1ccc(C)cc1,-1,-10,2.3,-1.7
COc1cccc(S(=O)(=O)N[C@H]2C=C[C@H](CC(=O)NC3CCC3)O[C@H]2CO)c1,-1,-2,-1.8,0.0
O=C(C[C@@H]1C[C@H]2c3cc(NS(=O)(=O)c4ccc(F)cc4)ccc3O[C@H]2[C@H](CO)O1)NCc1ccc(Cl)cc1,-57,-74,-19,4.4
COc1ccc(CN(C)C[C@H]2Oc3ccc(NC(=O)c4ccncc4)cc3C(=O)N([C@@H](C)CO)C[C@@H]2C)cc1,6,11,0.3,-6.7
COc1ccccc1NC(=O)N[C@@H]1CC[C@@H](CCn2cc(-c3ccccc3)nn2)O[C@@H]1CO,0,0,3.1,0.2
O=C(C[C@H]1CC[C@@H]2[C@H](COC[C@H](O)CN2C(=O)c2ccc3c(c2)OCO3)O1)NCCN1CCCC1,2,0,3.0,-2.1
COc1ccc2c3c([nH]c2c1)[C@@H](CO)N(C(C)=O)CC31CN(Cc2ccccc2Cl)C1,-23,-41,-4.4,29*
O=C(C[C@H]1CC[C@@H](NS(=O)(=O)c2ccc(F)cc2)[C@H](CO)O1)NCCN1CCCCC1,-2,-3,-0.4,0.6
Cc1ccc(S(=O)(=O)N[C@@H]2CC[C@H](CC(=O)NC3CCCCC3)O[C@@H]2CO)cc1,1,5,-1.6,-1.9
C[C@@H]1CN([C@@H](C)CO)C(=O)c2cc(C#CCN(C)C)cnc2O[C@@H]1CN(C)C(=O)c1cccc(F)c1,3,2,-3.7,-4.9
C#CCOc1ccc(CNC[C@H]2O[C@@H](n3ccc(=O)[nH]c3=O)[C@H](O)[C@@H]2O)cc1,10,7,0.3,-4.2

# Structures from the list above that have a thiophene ring, fused or not (3):
SMILES,Ecoli rRNA inh,Ecoli rRNA inh OD600,Ecoli rRNA inh RFP,AF4-AF9 inh
CCCCN1C(=O)C(CC(=O)NCc2cccs2)CC(C(=O)N2CCCCCC2)=C1C (configuration not stated),4,7,1.5,-2.1
COCCNc1nc(Nc2ccccc2Cl)c2sc(-c3ccccc3)cc2n1,-1,28,-2.0,-0.2
COc1ccc(S(=O)(=O)Nc2ccc3c(c2)CC(=O)N([C@@H](C)CO)C[C@@H](C)[C@@H](CN(C)S(=O)(=O)c2cccs2)O3)cc1,-3,-12,1.5,-0.5

# Continued.
SMILES,Ecoli rRNA inh,Ecoli rRNA inh OD600,Ecoli rRNA inh RFP,AF4-AF9 inh
COc1ccccc1NC(=O)Nc1nc(C(N)CC(C)C)cs1 (configuration not stated),8,5,6.9,11
COc1ccccc1-c1ccc2n(c1=O)C[C@@H]1[C@@H](CO)[C@H](C(=O)NCc3ccccn3)[C@H]2N1C,2,6,2.6,-3.0
C[C@H](CO)N1C[C@H](C)[C@H](CN(C)Cc2ccccc2)Oc2ncc(-c3cncnc3)cc2C1=O,3,-1,-3.3,-2.7
C[C@H](CO)N1C[C@H](C)[C@H](CN(C)C)Oc2ncc(C3=CCCC3)cc2C1=O,2,6,0.1,-3.3
COC(=O)[C@]12CCCCC=C1N(Cc1ccccc1)C(=O)[C@H](CC(=O)NCc1ccc(OC)c(OC)c1)C2,-20*,-16*,2.6*,1.8
O=C(C[C@H]1CC[C@H]2[C@@H](COC[C@@H](O)CN2Cc2ccc(F)cc2)O1)NCCc1ccccc1,-6,8,-1.0,-1.0
CCCNC(=O)N1[C@@H](C#N)[C@H](c2ccccc2-c2ccccc2F)[C@@H]1CO,1,-7,0.8,0.4
C[C@@H]1CN([C@@H](C)CO)C(=O)c2cccc(NS(=O)(=O)c3ccc(F)cc3)c2O[C@@H]1CN(C)Cc1ccc(C(F)(F)F)cc1,-3,-7,0.8,0.4
CNC[C@@H]1OCCCC[C@@H](C)Oc2ccc(NC(=O)Nc3ccc4c(c3)OCO4)cc2C(=O)N([C@@H](C)CO)C[C@H]1C,2,0,-3.6,4.1
COc1ccc(NC(=O)Nc2ccc3c(c2)C(=O)N([C@@H](C)CO)C[C@H](C)[C@H](CN(C)Cc2ccc(Cl)c(Cl)c2)OCCCC[C@@H](C)O3)cc1,3,6,1.2,2.8
C[C@H]1CCCCO[C@H](CN(C)C(=O)C2CCCCC2)[C@@H](C)CN([C@@H](C)CO)C(=O)c2cc(NC(=O)CCC(F)(F)F)ccc2O1,-1,-5,-0.8,-2.6
